SARS PLP yeast: blocks SARS-CoV papain-like protease in a yeast assay | S. cerevisiae expressing SARS-CoV PLpro, growth rescue; control for the full effect not named in the record | AID 485353 | Potency, µM (top dose mostly 32.9 µM), for the others: at the top dose activity, positive = growth rescue | 330,000 compounds, 0.19% hits; active means well fitted rising curve with a large enough effect; inconclusive means small, poorly fitted or top-dose-only effect; inactive means no such curve, though single readings can be large or run the other way; note: 0% is about no effect; nearly all actives have a fitted effect of over 55% in size; growth read by luminescence after 48 h
NS1 inh: blocks influenza NS1 protein function | S. cerevisiae slowed by influenza A NS1, growth recovery by OD600 | Potency, µM (series often up to 46.1 µM), for the others: at the highest dose activity, positive = more growth | 270,000 compounds, 0.4% hits | AID 2326; active means well fitted rising curve with a large enough effect; inconclusive means small, poorly fitted or top-dose-only effect; inactive means no such curve, though single readings can be large or run the other way; note: nearly all actives have a fitted effect of over 50% in size
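A cell-based growth assay was used: compounds that relieve NS1-induced slow growth of budding yeast raise OD600. Assay medium was yeast nitrogen base with ammonium sulphate and -URA supplement, pH 6.0, with 2% galactose.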
Cruzain noTriton: cruzain (T. cruzi) inhibition without detergent | 200,000 compounds, 2.3% hits | purified cruzain, Z-FR-AMC fluorescence, no detergent | Potency, µM, inactives show max response, negative = inhibition, hits mostly inhibitors;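 note: plate controls were enzyme without inhibitor for no effect and buffer without enzyme for full effect; nearly all actives have a fitted effect of over 40% in size; top concentration of the series not given in the record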
Target sequence (P25779 123-467 limits assumed): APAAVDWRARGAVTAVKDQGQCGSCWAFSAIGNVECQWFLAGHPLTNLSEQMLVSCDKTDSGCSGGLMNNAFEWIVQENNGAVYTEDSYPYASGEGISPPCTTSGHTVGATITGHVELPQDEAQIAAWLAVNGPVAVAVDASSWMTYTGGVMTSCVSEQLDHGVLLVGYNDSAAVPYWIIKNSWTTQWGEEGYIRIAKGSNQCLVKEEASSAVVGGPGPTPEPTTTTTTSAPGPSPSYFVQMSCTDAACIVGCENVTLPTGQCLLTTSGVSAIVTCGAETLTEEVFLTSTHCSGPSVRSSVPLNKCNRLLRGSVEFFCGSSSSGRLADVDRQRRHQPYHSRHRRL
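Purified cruzain at 1.5 nM, pre-incubated 15 min with compound at room temperature in 100 mM sodium acetate pH 5.5, 5 mM DTT, 0.00005% Triton X-100. Reaction started with 2 uM Z-FR-AMC; AMC fluorescence increase over 60 s gives rate.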
RE007 growth inh: less growth of the S. pombe RE007 Vpr strain. S. pombe RE007 Vpr strain, BacTiter-Glo ATP luminescence, 24 h; control for the full effect not named in the record. Potency, µM (top dose mostly 92.2 µM), inactives show at the highest dose activity change, negative = less growth. 360,000 compounds, 0.21% hits; active = well fitted falling curve with a large enough effect; inconclusive = small, poorly fitted or top-dose-only effect; inactive = no such curve, though single readings can be large or run the other way;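 note: % is set by controls: 0 for no effect and ±100 for the full control effect; nearly all actives have a fitted effect of over 50% in size; the assay follows cell death caused by Vpr and the record does not say whether a fall means rescue or toxicity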
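Fission yeast strain RE007, carrying one chromosomally integrated HIV-1 vpr copy, was seeded at OD 0.01 in PMG+AL medium with 23 nL pinned compound. After 24 h at 30 °C and 99% humidity, viability was read by BacTiter-Glo luminescence.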
MARV entry inh: blocks Marburg virus binding to or entry into cells; Marburg virus pseudotyped entry inhibition, cell reporter; control for the full effect not named in the record; about a third of the inactives were read at about 46 µM; 300,000 compounds, 1.8% hits; Potency, µM (titrated, usually from 37.8 µM), inactives show at the top dose activity change, negative = inhibition, actives largely listed as inhibitors; active = well fitted inhibition curve with a large enough effect; inconclusive = small, poorly fitted or top-dose-only effect, or effect the other way; inactive = flat fitted curve, though single readings scatter; tested in HEK293 cells; about a fifth of its hits are not listed in these tables; note: % is set by controls: 0 for no effect and ±100 for the full control effect; luciferase read-out
LASV entry inh: Lassa virus entry inhibition | Lassa virus pseudotype entry inhibition, cell reporter; control for the full effect not named in the record | Potency, µM (highest dose often 37.9 µM), inactives show at the highest dose activity change, negative = inhibition, actives largely listed as inhibitors | 300,000 compounds, 1.2% hits; active means well fitted inhibition curve with a large enough effect; inconclusive means small, poorly fitted or top-dose-only effect, or effect the other way; inactive means flat fitted curve, though single readings scatter; tested in HEK293 cells; note: % is set by controls: 0 for no effect and ±100 for the full control effect; nearly all actives have a fitted effect of over 50% in size; luciferase read-out
StopGo reporter: lowers the luciferase signal of an FMDV 2A StopGo reporter; 410,000 compounds, 1.2% hits; AID 1159524; Potency, µM (doses to about 57.9 µM), for inactives: at the highest dose signal change, negative = less light; human cells with a luciferase reporter of 2A StopGo recoding; control for the full effect not named in the record; active = well fitted falling curve with a large enough effect; inconclusive = small, poorly fitted or top-dose-only effect; inactive = no such curve, though single readings can be large or run the other way; tested in HEK293T cells; note: % is set by controls: 0 for no effect and ±100 for the full control effect; nearly all actives have a fitted effect of over 45% in size; luciferase light after 4 h
Cruzain inh Det: cruzain (T. cruzi) inhibition with detergent; purified cruzain, Z-FR-AMC fluorescence, 0.01% Triton; AID 1478; 200,000 compounds, 0.43% hits; Potency, µM, for inactives: max response, negative = inhibition, hits mostly inhibitors; P25779;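 note: plate controls were neutral wells for no effect and buffer without enzyme for full effect; nearly all actives have a fitted effect of over 40% in size; top concentration of the series not given in the record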
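Cruzain (1.5 nM) preincubated 15 min at RT with compound in 100 mM sodium acetate pH 5.5, 5 mM DTT, 0.01% Triton X-100. Reaction started with 2 uM Z-FR-AMC; AMC fluorescence (ex 360/em 450 nm) change over 60 s gave rate.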
* = called active by the depositor; ? = inconclusive; . = no result given; & = joins results of further samples; [ ] = dose if it differs, or a comment. Unless noted, calls come from the whole dose curve; as a rule, active = well fitted curve in the direction sought with a large enough effect; inconclusive = small, poorly fitted or top-dose-only effect, or another doubt; inactive = no such curve, though single readings can be large; an effect the other way counts as inactive or inconclusive. Potency is the fitted concentration of half-maximal effect.

Below each compound: SARS PLP yeast | NS1 inh | Cruzain noTriton | RE007 growth inh | MARV entry inh | LASV entry inh | StopGo reporter | Cruzain inh Det
CCS(=O)(=O)Nc1ccc(Cc2ccc(NS(=O)(=O)CC)cc2)cc1
  -3.3% | 0.9% | 5.6% | -3.1% | -18.2% | -4.5% | -1.1% | -5.0%
CC1CCCN(S(=O)(=O)c2ccc(NC(=O)C3CCN(C(=O)c4ccco4)CC3)cc2)C1 (stereo not drawn)
  4.3% | -7.2% | . | -8.9% | -24.0%[46.1 µM] | -8.4%[46.1 µM] | 16.7% | .
C1CC2CN(c3nc4nonc4nc3N3CCSCC3)CCN2C1 (stereo not drawn)
  0.3% | 5.0% | . | 7.9% | ? | -3.4% | 14.3% | .
COc1ccc(NC(=O)c2ccc(COCC(F)(F)C(F)F)cc2)cc1OC
  26.2% | 7.0% | -0.1% | -5.3% | ? | 17.1% | -22.0% | -7.7%
Cc1cnc2c(c1SCC(=O)NCc1ccc(F)cc1)c(=O)n(C)c(=O)n2C
  . | . | -3.5% | . | . | 7.6%[46.1 µM] | -11.6% | 0.4%
COc1cc2c(cc1OC)C(SC)=NC(C)(C)C2
  12.9% | 2.0% | -11.4% | 6.6% | ? | 5.6% | . | -5.8%
CC(C)CC1NC(=O)N(CC(=O)N2CCN(S(=O)(=O)c3ccc(Cl)cc3)CC2)C1=O (stereo not drawn)
  2.4% | -22.8% | 7.6% | 5.1% | 2.0%&32.9% | -9.2% | -27.7% | 5.1%
Cc1ccc(C(=O)N2CCCC(N(C)Cc3ccccc3)C2)s1 (stereo not drawn)
  1.2% | -9.1% | . | 8.5% | -1.5% | -15.4% | 13.4% | .
COc1ccc(C(=O)OCC(=O)NC(C)CCc2ccccc2)cc1 (stereo not drawn)
  0.6% | -5.2% | . | 4.0% | ? | -5.0% | -7.7% | .
CCOC(=O)n1c(=O)oc2ccc(Cl)cc21
  -25.5% | 4.1% | -4.7% | -28.6% | ? | -17.9% | 12.4% | -1.8%
CC[C@@H](C)C(NC(=O)OC(C)(C)C)c1cn([C@@H](CCC(=O)OC(C)(C)C)C(=O)N2CCN(C(=O)OC(C)(C)C)CC2)nn1 (stereo partly drawn)
  0.1% | 3.4% | . | 4.9% | . | . | -20.6% | .
Cc1cccc(NS(=O)(=O)c2cccc(C(=O)Nc3cccc(C(=O)O)c3)c2)c1
  -0.9% | 2.24µM* | . | 6.8% | . | . | 14.2% | .
Nc1nnnn1/N=C/c1ccccc1OCc1ccc(Cl)cc1
  9.8% | 6.8% | -28.3% | 18.6% | -18.9% | 24.8% | 10.6% | -4.6%
CC(=O)Nc1ccc(NC(=O)CSCc2cnn(-c3ccccc3)c2-n2cccc2)cc1
  -7.2% | 3.7% | ? | 9.4% | -5.9% | 1.0% | -2.4% | -4.9%
Cc1cc(Nc2ccc(F)cc2)nc(N)n1
  -4.2% | 5.6% | -3.1% | -5.5% | -20.0% | 16.0% | 21.8% | 5.4%
Cc1nc2c(cnn2-c2ccccc2Cl)c(=O)n1-c1ccc(N2CCC(C)CC2)cc1
  7.1% | -1.5% | 3.1% | 1.7% | ? | ? | -21.4% | -3.5%
CC(=O)NCC1CCCN(C(=O)c2oc3c(F)cccc3c2C)C1 (stereo not drawn)
  14.8% | 1.3% | . | -3.9% | . | . | 18.7% | .
CCN(CC)P(=O)(NC(=O)c1cccn1C)N(CC)CC
  -2.8% | 0.6% | . | -0.7% | 9.0% | -0.3% | -6.8% | .
Nc1nonc1-n1nnc(C(=O)N/N=C/c2cccc(Cl)c2)c1CSc1ccccc1
  -0.1% | 8.5% | . | 8.5% | 3.7% | 3.2% | -14.7% | .
CCn1cc(C(=O)NCCc2ccccc2)c(=O)c2cc(S(=O)(=O)N3CCCCCC3)ccc21
  . | . | ? | . | 23.5%[46.1 µM] | 1.3%[46.1 µM] | -10.5% | -2.7%
CC(C)(C)NC(=O)Cn1cc(C(=O)c2ccccc2F)c2ccccc21
  ? | 6.2% | -0.3% | 11.9% | 1.0%[46.1 µM] | ? | -5.4% | 3.7%
C/C=C/c1c(F)c(F)c(Oc2ccc(C(=O)O)cc2)c(F)c1F
  -24.3% | -155.0% | -10.2% | 13.9% | 20.1% | 12.5% | -1.7% | -7.2%
CN1CCN(c2ccc(NC(=O)COc3ccccc3Cl)cc2)CC1
  -3.6% | 2.5% | -19.5% | -6.4% | -5.2%[46.1 µM] | 2.4% | 0.0% | -2.6%
Cc1oc(-c2ccccc2F)nc1CSCC(=O)NCc1ccc2c(c1)OCO2
  -3.6% | -24.2% | -3.6% | 0.0% | 3.4% | 22.1% | ? | -0.5%
O=C(N1CCOCC1)N1CCN(S(=O)(=O)N2CCCCC2)CC1
  6.5% | -1.6% | 5.2% | 5.1% | 8.3% | 23.6% | ? | -2.4%
Cc1ccc(S(=O)(=O)N2CCCC2C(=O)N2CCCCCC2)cc1 (stereo not drawn)
  0.3% | 1.8% | 0.4% | 17.0% | -2.8% | 6.1% | -0.8% | 8.2%
CC(C)N(C(=O)Cn1cc(S(=O)(=O)CC(=O)N2CCOCC2)c2ccccc21)C(C)C
  5.8% | -0.1% | . | 1.9% | . | . | -17.4% | .
COc1ccc2c(c1)c(=O)c(S(=O)(=O)c1ccccc1)cn2CC(=O)Nc1ccc2c(c1)OCO2
  . | . | 8.5% | . | 0.4%[46.1 µM] | 4.6%[46.1 µM] | 19.9% | -6.7%
O=C1NC2=C(CCc3ccccc32)C(c2ccccc2)N1 (stereo not drawn)
  -3.9% | -3.2% | 7.0% | -1.8% | 0.8% | ? | 10.2% | -0.3%
CSC(=NCCCN1CCOCC1)NS(=O)(=O)c1cccs1
  0.8% | -2.1% | -7.3% | -1.6%&0.1% | ? | 18.8%[46.1 µM] | -0.6%&-12.4% | 5.7%
CCCCn1c(N)c(NCC)c(=O)[nH]c1=O
  -4.2% | -26.0% | . | 12.3% | 3.9%&3.9% | 3.5% | -7.9% | .
O=C1C=CC(=O)N1c1ccccc1N1C(=O)C=CC1=O
  . | . | . | -14.4% | ? | 11.2µM* | ? | .
Cc1ccc(CCNC(=O)C2CCN(S(=O)(=O)c3ccc4c(ccn4C)c3)CC2)cc1
  . | . | -10.8% | . | . | -19.2%[46.1 µM] | -22.0% | -3.6%
OC(CNCCc1ccc(Cl)cc1)COc1cc(Cl)ccc1Cl (stereo not drawn)
  -3.7% | -3.6% | . | 10.9% | . | . | -17.4% | .
COc1ccc(COC(=O)c2c(C)nn(-c3ccccc3)c2Cl)cc1
  -0.2% | -6.1% | . | -15.6% | 27.5%[46.1 µM] | ? | -5.7% | .
CCCn1c(SCC(=O)NC2CCCC2)nc2c1c(=O)n(C)c(=O)n2C
  -0.7% | 3.1% | . | ? | -5.3% | 1.1% | -18.8% | .
COc1ccc(N2CCN(C(=O)c3cc(=O)c4cc(C)cc(C)c4o3)CC2)cc1
  1.6% | -5.7% | . | 47.6% | -30.4%[46.1 µM] | -29.8%[46.1 µM] | -18.5% | .
COc1ccc(CCNC(=O)CN(c2ccccc2)S(C)(=O)=O)cc1OC
  2.9% | -11.5% | 13.8% | 8.3% | -5.1% | 0.3% | 7.7% | 6.0%
COc1cc(Cl)c(C)cc1NC(=O)COC(=O)C(NS(=O)(=O)c1ccc(Cl)cc1)C(C)O (stereo not drawn)
  -7.0% | 6.2% | ? | -3.4% | 11.6% | 0.4% | ? | -16.4%
COc1ccccc1CCNC(=O)C1CCC(=O)N(Cc2cccc(F)c2)C1 (stereo not drawn)
  3.1% | -3.3% | . | 3.0% | . | . | 23.8% | .
COc1cccc(Nc2nc3ccccc3nc2NS(=O)(=O)c2ccc(NC(C)=O)cc2)c1
  3.1% | 3.8% | . | -18.8% | 1.6% | -7.8% | ? | .
O=C(Nc1cc(Cl)ccc1N1CCCC1)C1=NN(c2ccccc2)C(=O)CC1
  -0.5% | 6.5% | . | 5.8% | . | . | ? | .
CN(C)c1nc(SCC#N)nc(N2CCOCC2)n1
  -1.7% | -4.9% | -7.0% | 16.8% | ? | 15.6% | -8.8% | 3.5%
CN(CC(=O)Nc1ccccc1Oc1ccccc1)Cc1ccccc1F
  -5.9% | -17.4% | -4.0% | 2.9% | -24.7% | -5.3% | ? | -6.5%
O/N=C(/c1ccc(Cl)cc1)C1CC1c1ccccc1 (stereo not drawn)
  -0.7% | -57.4% | . | ? | -25.7%[46.1 µM] | 9.3%[46.1 µM] | -9.8% | .
O=C(O)CCn1c(=O)c2ccccc2c2ccccc2c1=O
  -0.6% | 1.0% | -7.3% | -1.2% | 4.6% | 0.5% | -24.1% | 1.5%
Cc1cc(OCc2nnc(SC(C)C(=O)O)n2-c2ccccc2)ccc1Cl (stereo not drawn)
  7.3% | ? | . | 2.3% | -3.3%[46.1 µM] | 18.5%[46.1 µM] | -11.9% | .
CC1=CC(=O)C=C(C)C1=NOC(=O)/C=C\c1ccccc1
  -12.3% | 4.3% | -1.3% | 3.3% | -6.0% | 1.1% | -1.8% | -4.0%
COc1ccc(N(CC(=O)NCCC2=CCCCC2)S(=O)(=O)c2c(C)[nH]c(=O)[nH]c2=O)cc1
  -3.3% | -2.1% | . | 10.4% | . | . | -16.9% | .
CSc1nc(C)cc(OCC(=O)n2nc(C)cc2C)n1
  0.1% | -7.7% | -3.5% | -19.7% | ? | -2.1% | 7.1% | 1.9%
CCCCOc1ccc(Cl)cc1CSc1nnc(C)n1N
  3.9% | 5.7% | 13.1% | -7.9% | 2.7% | 11.9% | -13.3% | -2.8%
CCn1cc(CCC(=O)NCc2ccccc2OC)c2ccccc21
  -1.5% | -7.7% | -19.6% | 6.9% | . | 2.2%[46.1 µM] | 6.9%&10.1% | -3.8%
COc1ccc(C2NCCc3c2[nH]c2ccccc32)cc1COc1ccc(F)cc1 (stereo not drawn)
  -3.9% | -30.4% | -12.0% | 15.2% | ? | 23.1µM* | ? | 4.4%

Assay outcomes deposited in PubChem by National Center for Advancing Translational Sciences (NCATS).
